# hNpr1 antagonist = human Npr1 receptor antagonism. HEK293 hNpr1 GloSensor cGMP, ANP-stimulated luminescence. Potency, µM (top dose mostly 46.3 µM), for the others: at the top dose activity change, negative = inhibition, actives largely listed as inhibitors. AID 1347048. P16066. 76,000 tested, 1.6% active; active = well fitted inhibition curve with a large enough effect; inconclusive = small, poorly fitted or top-dose-only effect; inactive = no such curve, though single readings can be large or run the other way;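 further: nearly all actives have a fitted effect of over 60% in size; nearly all hits also lower the signal before the agonist is added; a reference antagonist and vehicle were the controls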
# Target sequence (P16066 whole entry, looked up): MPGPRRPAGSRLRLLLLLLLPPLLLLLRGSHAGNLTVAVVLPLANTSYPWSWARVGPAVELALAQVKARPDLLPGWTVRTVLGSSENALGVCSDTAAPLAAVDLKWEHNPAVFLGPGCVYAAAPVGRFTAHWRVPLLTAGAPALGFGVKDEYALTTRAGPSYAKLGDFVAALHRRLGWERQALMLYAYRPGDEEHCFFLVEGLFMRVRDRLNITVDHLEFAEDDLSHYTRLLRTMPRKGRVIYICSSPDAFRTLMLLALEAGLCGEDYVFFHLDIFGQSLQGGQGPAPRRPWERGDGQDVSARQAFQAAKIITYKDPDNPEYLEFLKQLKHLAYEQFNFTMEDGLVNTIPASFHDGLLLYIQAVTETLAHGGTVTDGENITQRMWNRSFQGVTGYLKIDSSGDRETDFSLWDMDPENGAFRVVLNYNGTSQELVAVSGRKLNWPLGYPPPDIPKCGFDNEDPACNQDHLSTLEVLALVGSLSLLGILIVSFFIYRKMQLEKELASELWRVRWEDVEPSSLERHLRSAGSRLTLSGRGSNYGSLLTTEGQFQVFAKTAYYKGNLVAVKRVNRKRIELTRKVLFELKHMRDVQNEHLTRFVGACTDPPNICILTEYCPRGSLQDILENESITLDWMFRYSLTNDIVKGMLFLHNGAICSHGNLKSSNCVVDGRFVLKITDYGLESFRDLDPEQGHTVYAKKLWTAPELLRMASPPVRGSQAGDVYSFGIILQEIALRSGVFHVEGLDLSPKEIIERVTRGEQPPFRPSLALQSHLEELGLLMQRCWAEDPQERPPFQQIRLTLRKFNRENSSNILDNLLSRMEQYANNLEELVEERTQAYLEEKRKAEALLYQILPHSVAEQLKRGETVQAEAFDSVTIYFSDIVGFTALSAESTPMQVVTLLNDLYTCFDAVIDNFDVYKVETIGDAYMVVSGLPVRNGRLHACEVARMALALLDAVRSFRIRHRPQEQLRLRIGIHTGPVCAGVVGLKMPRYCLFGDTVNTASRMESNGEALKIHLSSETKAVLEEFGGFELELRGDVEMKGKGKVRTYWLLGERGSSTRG
#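 Compound pre-incubated 30 min at room temperature on GloSensor-loaded HEK293 cells stably carrying hNpr1 and the pGS-40F cGMP biosensor. Stimulation uses hNppA at 0.1 nM final; luminescence is taken at baseline and 20 min post-agonist.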
# * hit, by the source's call; ? = inconclusive; [ ] = another dose, or the depositor's remark. On the % scale 0 is the no-effect control and ±100 the full control effect; potency means the concentration at half of the fitted maximal effect. Only part of the results is shown (hit frequency here may not be typical).
SMILES,hNpr1 antagonist
CN(C)S(=O)(=O)N1CCCC(C(=O)Nc2cccc(-n3cccn3)c2)C1 (configuration not stated),6%
COc1ccc(OC)c(CNC(=O)COc2ccc(NC(=O)C3CC3)cn2)c1,4%
Cc1cc(COc2ccccc2)oc1C(=O)N1C[C@@H]2CCN(C)[C@@H]2C1,-1%
CC1=C[C@@H](CNS(=O)(=O)c2cccc(F)c2)[C@H](C(C)C)C[C@H]1CC(=O)O,-1%[70.6 µM]
COCCNC(=O)[C@H]1C[C@H](Oc2ccccc2)CN1C(=O)NCc1ccc(OC)cc1,1%
CN1CCN(c2ccc(-c3noc([C@@H]4CCCN4Cc4ccccc4)n3)cn2)CC1,2%[70.6 µM]
CC(=O)N1CCc2[nH]cnc2C12CCN(C(=O)c1ccn3nnnc3c1)CC2,-1%
COCc1cc(CC2(NCc3ccc(C#N)cc3)COC2)no1,1%[70.6 µM]
Cn1nccc1-c1cn(C)c(=O)n2cc(COc3ccc(Cl)cc3)nc12,0%[70.6 µM]
Cc1ccc(C(=O)NC2CCN(c3cn[nH]c(=O)c3)CC2)cc1F,5%
O=C(Cn1cccc1-c1nc(-c2ccccc2)no1)NCCc1ccc(Cl)cc1,-2%
COCc1ccc(CNCc2cccnc2N2CCCC(O)C2)o1 (configuration not stated),1%
COc1cccc(-c2ccc(NC(=O)C3CCCN3Cc3cnn(C)c3)cc2)c1 (configuration not stated),-1%
CSc1cccc(NC(=O)N2CCC(OC3CCN(Cc4ccccc4)CC3)CC2)c1,-22%
Cn1cc(CC(=O)N2CCCc3ncc(C(N)=O)cc32)c2ccccc21,-7%[70.6 µM]
O=C(CCc1ccc2c(c1)OCO2)N1Cc2ccccc2C(O)C1 (configuration not stated),9%
COc1ccc(OC)c2nc(-c3cccc(Cl)c3)c(CN3CCC(O)CC3)cc12,-13%
COc1ccc2[nH]cc(CCNC(=O)C3Cn4cccc4C(=O)N3Cc3cccnc3)c2c1 (configuration not stated),-1%
Cc1ccc(-n2c(C3CCN(C(=O)c4cccc(F)c4)CC3)n[nH]c2=O)cc1,3%
COc1ccc(-c2ncc3c(n2)OCCN(Cc2ccccc2)C3=O)cn1,-12%[70.6 µM]
CCN(CC)C(=O)CN1C(=O)NC2(CCC(C(C)(C)C)CC2)C1=O (configuration not stated),0%
COCCOCc1nc(C2CCN(C(=O)c3[nH]nc4c3CCc3cc(OC)ccc3-4)CC2)no1,-15%
Cc1noc(C)c1-c1cc2c(c(-c3cccnc3)c1)C(=O)N(C)C2,7%[70.6 µM]
O=C(c1ccsc1)N1CCC(Oc2ccccc2)C1 (configuration not stated),-6%

# In another format: 6 of the compounds above.
hNpr1 antagonist | compound
1% | COCc1ccc(CNCc2cccnc2N2CCCC(O)C2)o1 (configuration not stated)
-15% | COCCOCc1nc(C2CCN(C(=O)c3[nH]nc4c3CCc3cc(OC)ccc3-4)CC2)no1
-7%[70.6 µM] | Cn1cc(CC(=O)N2CCCc3ncc(C(N)=O)cc32)c2ccccc21
4% | COc1ccc(OC)c(CNC(=O)COc2ccc(NC(=O)C3CC3)cn2)c1
0% | CCN(CC)C(=O)CN1C(=O)NC2(CCC(C(C)(C)C)CC2)C1=O (configuration not stated)
0%[70.6 µM] | Cn1nccc1-c1cn(C)c(=O)n2cc(COc3ccc(Cl)cc3)nc12

# The listing picks up, repeating the six entries before the break.
SMILES,hNpr1 antagonist
Cc1ccc(-n2c(C3CCN(C(=O)c4cccc(F)c4)CC3)n[nH]c2=O)cc1,3%
COc1ccc(-c2ncc3c(n2)OCCN(Cc2ccccc2)C3=O)cn1,-12%[70.6 µM]
CCN(CC)C(=O)CN1C(=O)NC2(CCC(C(C)(C)C)CC2)C1=O (configuration not stated),0%
COCCOCc1nc(C2CCN(C(=O)c3[nH]nc4c3CCc3cc(OC)ccc3-4)CC2)no1,-15%
Cc1noc(C)c1-c1cc2c(c(-c3cccnc3)c1)C(=O)N(C)C2,7%[70.6 µM]
O=C(c1ccsc1)N1CCC(Oc2ccccc2)C1 (configuration not stated),-6%
Cc1ccc(-c2noc([C@@H]3Cc4nc[nH]c4CN3Cc3cccs3)n2)cc1,-18%[70.6 µM]
CN(C)C(=O)c1n[nH]c2c1CN(C(=O)c1cc(F)cc(F)c1)CC2,-2%
C=CCOC(=O)N(C)Cc1cn([C@@H]2CN[C@H](C(=O)NC)C2)nn1,4%
CN(C1CCc2ccccc2C1)[S+](=O)([O-])c1cccs1 (configuration not stated),3%[70.6 µM]
O=C1c2c(nc(COc3cc(F)cc(F)c3)n2Cc2ccccc2)NCCN1CC1CCOCC1,-14%
COc1cc(Cl)ccc1C(=O)N1CC(F)(F)C[C@H]1c1nnc(C)o1,8%
COc1ccc(C(=O)N[C@@H]2CCC[C@@H]2C(=O)NC(C)C)cc1,2%
COc1ccc(CCC(=O)N2CCC(Cc3nc(C4CC4)n[nH]3)CC2)cc1,4%
CC(C)(C)C(=O)N1CCc2nc(C3CC3)nc(-c3ccc(Cl)cc3)c2C1,-21%
CN(C)c1cccc(C(=O)N2CCN(c3cc(-c4ccc(Cl)cc4)[nH]n3)CC2)c1,-24%
CCn1c2c(c(=O)n1-c1ccccc1)CCN(Cc1cncc(OC)c1)C2,2%[70.6 µM]
COc1cccc(C(=O)N[C@@H]2CN(Cc3cccnc3)C[C@H]2CN(C)C)c1C,-3%
O=C(Cc1cccs1)NC1CCCc2c1[nH]c1c(Cl)cccc21 (configuration not stated),-8%
CC1=C[C@@H](CNCCN2CCOCC2)[C@H](C(C)C)C[C@H]1Cc1nnc(-c2ccc(C)cc2)o1,-3%
CC1=C[C@@H](CN2CCC(O)CC2)[C@H](C(C)C)C[C@H]1Cc1nnc(-c2ccncc2)o1,3%[70.6 µM]
Cc1ccsc1C(=O)N1CCN(C(=O)c2nnn3c2COC(c2ccccc2)C3)CC1 (configuration not stated),-14%
COc1cc(CN2CCC([C@@H]3CNC[C@H]3CO)CC2)cc(OC)c1,2%
O=C(c1cccc(Cl)c1)N1CCc2nc(C3CC3)nc(-c3ccc(Cl)cc3)c2C1,-1%
Cc1cnc(C(=O)N[C@@H]2CCC[C@@H]2C(=O)NCCCN2CCOCC2)cn1,0%
CCc1ccccc1NC(=O)CN1C=C(C(=O)OC)C(C)=NS1(=O)=O,0%
Cc1noc(-c2cn(C3CCCN(C(=O)c4cccc(Br)c4)C3)nn2)n1 (configuration not stated),0%
CCN1CC(C(=O)N2CCC3(CC2)C(=O)N(C)c2ccccc23)CCC1=O (configuration not stated),-2%
Cc1ncoc1C(=O)N1CCC[C@H](n2c(=O)n(C)c3cccnc32)C1,-4%
O=C1CC(c2noc(-c3ccc4c(c3)OCO4)n2)CN1c1ccc(F)cc1 (configuration not stated),0%
Cc1cccc(-c2ocnc2C(=O)N2CCCCCCNC(=O)[C@@H]3CCC[C@@H]32)c1,1%
CC(C)CN1C(=O)c2cccn2CC1CNC(=O)c1n[nH]c(=O)c2ccccc12 (configuration not stated),1%
CCOC(=O)C1CCN(C(=O)C2COC3(CCCCC3)N2C(=O)c2ccccc2)CC1 (configuration not stated),-4%
Cn1c(CN2CCOC[C@H]2c2ncc(-c3ccc(Cl)cc3)[nH]2)nc2ccccc21,20µM*
COC[C@@H]1CN(C(=O)c2ccc3ncccc3c2)C[C@H]1c1nc(C)no1,3%
CC(=O)N1CC2(CCN(CC(=O)N3CCOCC3)CC2)CC1C(=O)O (configuration not stated),-3%
COc1ccc(Cl)cc1NC(=O)Cn1cccc1-c1nc(-c2ccccc2)no1,1%
O=C(NCc1ccccc1)c1noc(-c2ccc3c(c2)OCO3)n1,-1%
CCOC(=O)N1CCN(C2CCCN(Cc3cc(C)ccc3-n3cccn3)C2)CC1 (configuration not stated),1%
CCOc1ccc(C2NC(=O)N(CC(=O)N3CCCC3)C3=C2C(=O)OC3)cc1 (configuration not stated),0%
CCNC(=O)CCc1c(C)nn(-c2ccccc2C)c1Oc1ccccc1F,-9%
O=C(NCc1ccc(C(F)(F)F)cc1)C1CCCN(c2cn[nH]c(=O)c2)C1 (configuration not stated),-1%
CCC1Oc2ccc(NC(=O)C3CC3)cc2CN(Cc2cc(F)cc(F)c2)C1=O (configuration not stated),0%
COc1ccc(C(=O)N2CCC(N3Cc4cnc(C)n4C3=O)CC2)cc1,-5%
COc1ccc(-n2nc(C3CCN(Cc4ccc(N(C)C)cc4)CC3)[nH]c2=O)cc1,15%
Cc1ccc(CN2CCC3(CC2)CC(c2ccccc2)C(=O)N3C)cc1F (configuration not stated),1%
N#Cc1cccc(C(=O)N2CCCN(C(=O)C3CC3)C(c3ccccc3)CC(=O)NCC2)c1 (configuration not stated),7%
O=C(NCc1nc(-c2ncccn2)no1)C1CC2(CCNCC2)CN1 (configuration not stated),-2%
Cc1oc(C(O)c2cncnc2)nc1C(=O)Nc1ccc2c(c1)NC(=O)CO2 (configuration not stated),-1%[70.6 µM]
Cc1ccc(NC(=O)N2CCc3c(C(=O)NCCCN4CCCC4=O)cccc32)cc1,1.4µM*
Cc1ncsc1C(=O)N1CCc2c(n(Cc3ccccc3)n(-c3ccccc3)c2=O)C1,2%[70.6 µM]
CCn1c(C2CCCN(C(=O)c3ccc(C(C)(C)C)cc3)C2)nn(C)c1=O (configuration not stated),-8%
CC(=O)N[C@@H]1C[C@H](Cc2ccccc2)O[C@H](c2c(C)nn(C(C)(C)C)c2C)C1,2%
Cc1nc(C)c(C(=O)NCC2CCCCC(=O)N2)s1 (configuration not stated),6%
Cc1nn(CCC#N)c(C)c1[C@@H]1C=C[C@@H](NCc2ccc(C(C)C)cc2)C1,-26%[70.6 µM]
COc1ccc(N2Cc3c(NCCc4ccc(Cl)cc4)ncnc3N(C)CC2=O)cc1,2%
COc1ncc(-c2nccc3c(=O)cc(N4CCN(C)CC4)oc23)cn1,1%[70.6 µM]
Cc1nn(C)c(C)c1S(=O)(=O)NCCc1noc(-c2cccnc2)n1,2%
O=C1C(O)C2(CCCCC2)N1C1CCN(Cc2ccc(F)c(F)c2)CC1 (configuration not stated),1%
O=C(Nc1cccc(C(F)(F)F)c1)O[C@@H]1CO[C@H]2[C@@H]1OC[C@@H]2NC(=O)C1CCC1,?
O=C1CCCN1CCc1nc(C2CCOC2)nn1-c1cccnc1 (configuration not stated),-2%
Cc1cc(=O)n(CC(=O)Nc2cccc(Br)c2)c(N2CCOCC2)n1,-11%
CCc1cccc(OCC(=O)c2ccc3c(c2)N(CC(=O)NCc2ccco2)C(=O)CO3)c1,-16%
COc1cc(NC(=O)c2cc3n(n2)CC(c2ccc(Cl)cc2)OC3)c(OC)cc1Cl (configuration not stated),-3%
COc1ccc(C(C)NC(=O)c2noc(-c3ccc(C)cc3)n2)cc1 (configuration not stated),-3%
Cn1cnc2cc(-c3ccc(F)cc3)cc(C(=O)NCCN3CCOCC3)c21,1%[70.6 µM]
# Carrying on.
SMILES,hNpr1 antagonist
CCOc1ccc(NC(=O)C2(CC)CCCCC(=O)N2)cc1 (configuration not stated),-1%
CCC(O)c1cc2n(n1)CCN(Cc1nnc(-c3cccc(F)c3)o1)C2 (configuration not stated),6%
COC1CCN(CC2CCCCCN2C(=O)Nc2ccc3c(c2)OCCO3)CC1 (configuration not stated),0%
Cc1noc(-c2ccc3c(c2)OCO3)c1C(=O)NCCCCc1ccccc1,-16%
O=C(Cn1cccc1-c1nc(-c2ccc3c(c2)OCO3)no1)N1CCc2ccccc21,2%
CNc1nc(C(=O)N2CCC3(CCC(=O)N(CC4CCCO4)C3)CC2)cs1 (configuration not stated),2%
O=C(NC1CC1)c1ccccc1OC1CN(Cc2cccc(F)c2F)C1,3%
F[C@@H]1CN(Cc2ccc(C(F)(F)F)cc2)C[C@@H]1OCc1nc2ccccc2[nH]1,28µM*
COc1cccc(CN2CC[C@H]3C(=O)NCCCCCCN(Cc4ccncc4)[C@@H]3C2)c1,2%
COc1ccc(C(=O)N2CCC(N3C(=O)C(OC)C34CCOCC4)CC2)c(OC)n1 (configuration not stated),5%
C[S+](=O)([O-])N1CC2(Cc3ccccc31)CN(C(=O)Cc1ccccn1)C2,7%
COCCC(=O)N1CC(F)(F)C[C@H]1c1nc(C2CC2)no1,6%
CC1=C[C@@H](CO)[C@H](C(C)C)C[C@H]1Cc1nnc(-c2cccnc2)o1,-1%[70.6 µM]
CC1CCN([C@@H]2[C@H](O)[C@H](CO)O[C@@H]2CNC2CCOCC2)CC1,-2%[70.6 µM]
COc1ccccc1C(=O)N1CCCN(c2cc(-c3ccc(F)cc3)[nH]n2)CC1,-12%
CCOc1ccc(C2Cn3nnc(-c4nc(-c5ccccc5)no4)c3CO2)cc1 (configuration not stated),-17%
O=C(c1cccc(O)c1)N1CCc2c(n(CCOc3ccccc3)n(-c3ccccc3)c2=O)C1,-8%
COc1ccc(-c2cc(N3CCC(NC(=O)c4cccc(Br)c4)C3)n[nH]2)cc1 (configuration not stated),-14%
CC1(c2noc(-c3ccccn3)n2)CCN(C(=O)CCc2nc3ccc(Cl)cc3[nH]2)CC1,-16%
Cc1noc(-c2cn(C3CCN(C(=O)c4ccc(Cl)s4)CC3)nn2)n1,-10%
COc1cc(Cl)ccc1C(=O)N1CCC[C@H]1c1nc(-c2ccccc2)no1,-1%
CC(C)CN1C(=O)CO[C@H](c2ccc(NC(=O)COc3ccccc3)cc2)[C@H]1CO,?
CCN1C(=O)CCN(C(=O)CCC2CCCC2)CC12CCOCC2,0%
CN1C[C@@H](NC(=O)Nc2ccc(F)cc2)C[C@H]1c1nc(-c2ccccn2)no1,0%[70.6 µM]
CCc1ccccc1NC(=O)N1c2ccccc2CC1c1nc(C2CC2)no1 (configuration not stated),3%
CC[C@@H]1[C@@H](NC(=O)c2ccc(N3CCN(C)CC3)cc2)[C@@H]2CCO[C@H]12,7%

# High-throughput results from PubChem BioAssay.
